AF4-AF9 inh = inhibitors of AF4 peptide binding to AF9, primary screen, biochemical, AlphaScreen, biotin-AF4 peptide, FLAG-AF9, single point; actives 0.47% (n = 350,000); inhibition, % at 10 µM; Protein AF-9 (Homo sapiens), P42568; AID 651704, 2012;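 active = every replicate reaching a set inhibition limit, whatever the replicate mean, cut at about 25% in these data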;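 note: 0% = plate neutral control median and 100% = total signal loss; the record names both 10 and 1 µM as test concentration; the first replicate is given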
Target sequence (P42568 whole entry, looked up): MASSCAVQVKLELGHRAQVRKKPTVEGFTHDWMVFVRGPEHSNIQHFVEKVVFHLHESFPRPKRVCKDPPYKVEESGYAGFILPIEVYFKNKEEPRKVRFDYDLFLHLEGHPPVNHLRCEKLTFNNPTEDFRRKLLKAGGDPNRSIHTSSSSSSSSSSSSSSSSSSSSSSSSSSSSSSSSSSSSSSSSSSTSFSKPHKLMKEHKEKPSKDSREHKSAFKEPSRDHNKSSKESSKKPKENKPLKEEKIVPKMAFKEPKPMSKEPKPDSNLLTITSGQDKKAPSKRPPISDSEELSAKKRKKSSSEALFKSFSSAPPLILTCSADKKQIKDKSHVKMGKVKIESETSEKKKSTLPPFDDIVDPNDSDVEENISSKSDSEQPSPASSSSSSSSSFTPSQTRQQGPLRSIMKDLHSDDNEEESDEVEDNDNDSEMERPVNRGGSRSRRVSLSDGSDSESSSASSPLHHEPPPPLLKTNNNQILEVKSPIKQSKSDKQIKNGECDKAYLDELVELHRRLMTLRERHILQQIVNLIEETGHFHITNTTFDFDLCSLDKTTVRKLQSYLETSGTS
* hit, by the source's call; & = joins results of further samples. The list is partial (hit frequency here may not be typical).

| no. | AF4-AF9 inh | SMILES |
| --- | --- | --- |
| 1 | -16.2 | COc1ccc2c3c([nH]c2c1)[C@@H](CO)N(C(=O)Nc1ccccc1F)CC31CCN(C(=O)C2CC2)CC1 |
| 2 | -4.3 | COc1ccc(C(C)=O)cc1CN1C(=O)C(C)ON=C1c1ncccc1C (centres undefined) |
| 3 | -0.6 | C[C@H](CO)N1C[C@H](C)[C@H](CN(C)C(=O)Nc2ccccc2)Oc2ccc(NS(=O)(=O)c3cn(C)cn3)cc2C1=O |
| 4 | 0.3 | O=C(NCc1ccccc1)c1cc(C2CCCN(C(=O)c3ccccc3)C2)on1 (centres undefined) |
| 5 | -1.7 | CCCN1C[C@H](C)[C@@H](OC)CN(C)C(=O)c2ccc(NC(=O)C3CC3)cc2OC[C@H]1C |
| 6 | 1.3 | CC(C)[C@@H](C)/C=C/[C@@H](C)[C@H]1CC[C@@H]2[C@]1(C)CCC1[C@]23C=C[C@]2(C[C@@H](O)CC[C@]12C)N(c1ncc(C(F)(F)F)cc1Cl)O3 (some centres undefined) |
| 7 | -1.1 | C/C=C/c1ccc([C@@H]2[C@H]3CN(C(=O)Nc4ccccc4F)CC(=O)N3[C@H]2CO)cc1 |
| 8 | -2.1 | C[C@H]1CN([C@@H](C)CO)C(=O)c2cccc(NS(=O)(=O)c3cccs3)c2O[C@@H]1CN(C)C |
| 9 | 4.6 | CCCN1[C@@H]2c3ccc(C4=CCCC4)c(=O)n3C[C@@H]2[C@@H](CO)[C@@H]1C(=O)NCc1cccc(OC)c1 |
| 10 | 2.3 | C/C=C/c1cccc(-c2nc(C(=O)NCCC)cc3c2[C@@H](CCO)N([S@](=O)C(C)(C)C)C3)c1 |
| 11 | 3.5 | CCCNC(=O)[C@H]1[C@H](CO)[C@H]2Cn3c(ccc(-c4ccccc4)c3=O)[C@@H]1N2C(=O)CC1CC1 |
| 12 | -9.2 | COc1ccc(S(=O)(=O)Nc2ccc3c(c2)C(=O)N([C@H](C)CO)C[C@@H](C)[C@H](CN(C)S(C)(=O)=O)O3)cc1 |
| 13 | -2.5 | C[C@H](CO)N1C[C@H](C)[C@H](CN(C)C(=O)C2CCCCC2)Oc2ncc(C3=CCCC3)cc2C1=O |
| 14 | 2.2 | C[C@H]1CN([C@@H](C)CO)C(=O)c2cccc(NS(=O)(=O)c3cccs3)c2O[C@H]1CN(C)Cc1ccc(C(=O)Nc2ccccc2N)cc1 |
| 15 | 2.0 | C[C@H]1CN([C@@H](C)CO)C(=O)c2cc(C#Cc3cccc(F)c3)cnc2O[C@@H]1CN(C)C(=O)C1CC1 |
| 16 | -2.6 | CC(C)NC(=O)N[C@@H]1C=C[C@@H](CC(=O)NCc2ccc(Oc3ccccc3)cc2)O[C@@H]1CO |
| 17 | 3.9 | C[C@H](CO)N1C[C@H](C)[C@H](CN(C)Cc2ccc(F)cc2)Oc2ncc(C#CCN(C)C)cc2C1=O |
| 18 | 0.1 | COc1ccc(S(=O)(=O)Nc2ccc3c(c2)C(=O)N([C@@H](C)CO)C[C@@H](C)[C@@H](CN(C)S(=O)(=O)c2ccc(F)cc2)OCCCC[C@@H](C)O3)cc1 |
| 19 | 2.3 | C[C@H]1CN([C@@H](C)CO)C(=O)c2cccc(NC(=O)Nc3ccccc3)c2O[C@@H]1CN(C)S(=O)(=O)c1ccc(Cl)cc1 |
| 20 | -0.7 | C[C@H](NC(=O)C[C@H]1C=C[C@@H](NC(=O)C2CCOCC2)[C@@H](CO)O1)c1ccccc1 |
| 21 | 0.6 | C[C@H](CO)N1C[C@H](C)[C@H](CN(C)Cc2ccccc2)OCCCC[C@H](C)Oc2ccc(NC(=O)CCC(F)(F)F)cc2C1=O |
| 22 | 0.3 | COCCNC(=O)C1CCCN(C(=O)c2cccnc2Oc2ccccc2)CC1 (centres undefined) |
| 23 | -1.3 | CCCN1[C@@H]2c3ccc(-c4ccccc4)c(=O)n3C[C@@H]2[C@@H](CO)[C@@H]1C(=O)N1CCCCC1 |
| 24 | -1.4 | C[C@@H]1CN([C@@H](C)CO)C(=O)c2cccc(N(C)C)c2O[C@H]1CN(C)C(=O)NC1CCCCC1 |
| 25 | 1.5 | C/C=C/c1ccc2c(c1)O[C@@H](CN(C)C(=O)CC1CC1)[C@@H](C)CN([C@@H](C)CO)S2(=O)=O |
| 26 | -2.0 | N#C[C@@H]1N[C@H](CO)[C@@H]1c1ccccc1 |
| 27 | -1.0 | C[C@H](CO)N1C[C@H](C)[C@H](CN(C)Cc2ccncc2)Oc2c(NS(=O)(=O)c3cn(C)cn3)cccc2C1=O |
| 28 | 4.0 | C[C@H](CO)N1C[C@H](C)[C@@H](CN(C)S(=O)(=O)c2ccc(Cl)cc2)OCCCC[C@H](C)Oc2ccc(NC(=O)c3ccncc3)cc2C1=O |
| 29 | -0.8 | C[C@@H]1CN([C@H](C)CO)C(=O)c2cccc(NS(=O)(=O)c3cn(C)cn3)c2O[C@H]1CN(C)Cc1ccc(C(=O)O)cc1 |
| 30 | 1.4 | C[C@@H]1CN([C@@H](C)CO)C(=O)c2cccc(NC(=O)NC3CCCCC3)c2O[C@H]1CN(C)CC1CCCCC1 |
| 31 | -5.1 | Cc1noc(C)c1NC(=O)Nc1ccc2c(c1)C(=O)N([C@H](C)CO)C[C@@H](C)[C@@H](CN(C)C(=O)Nc1cccc3ccccc13)O2 |
| 32 | -3.8&2.7 | C[C@@H]1CN([C@@H](C)CO)C(=O)CCCn2cc(nn2)CO[C@H]1CN(C)C(=O)Nc1ccccc1C(F)(F)F |
| 33 | -0.4 | O=C(Nc1cccc(C(F)(F)F)c1)C1Cc2c(-c3ccc(Cl)cc3)ccnc2O1 (centres undefined) |
| 34 | 3.1 | C[C@@H]1CN([C@H](C)CO)C(=O)c2cccc(NC(=O)Nc3ccc4c(c3)OCO4)c2O[C@H]1CN(C)S(=O)(=O)c1ccc(F)cc1 |
| 35 | -1.9 | CN1CCN(c2ncnc3c2ncn3[C@H]2CN(Cc3ccncc3)C[C@@H](CO)O2)CC1 |
| 36 | 5.9 | CC(C)CC#Cc1ccc2c(c1)O[C@@H](CN(C)Cc1cncnc1)[C@@H](C)CN([C@H](C)CO)S2(=O)=O |
| 37 | -0.1 | CC(C)C[C@H]1CN(CCCC[C@H]2CNC(=O)C(=O)N2CCC2CCCCC2)C(=O)C(=O)N1CCc1ccccc1 |
| 38 | -1.6 | CCCNC(=O)C[C@H]1CC[C@H]2[C@@H](COc3ccc(NC(=O)NC(C)C)cc3C(=O)N2C)O1 |
| 39 | -0.4 | O=C(Nc1ccccc1)N1C[C@@H]2[C@H](c3ccccc31)[C@@H](CO)N2C(=O)c1ccccc1F |
| 40 | 0.1 | C[C@H](O)C#Cc1ccc([C@@H]2[C@H](CO)N3CCCCN(C(=O)c4ccc5c(c4)OCO5)C[C@@H]23)cc1 |
| 41 | 0.6 | C[C@H]1CN([C@@H](C)CO)C(=O)c2cccc(NC(=O)Nc3cccc4ccccc34)c2O[C@H]1CN(C)Cc1ccccc1 |
| 42 | -5.6 | CC(=O)NC1CC2CCCC(C1)N2C(=O)Nc1ccccc1C (centres undefined) |
| 43 | 1.2 | NC(c1ccccc1)c1csc(NC(=O)NCC2CCCCC2)n1 (centres undefined) |
| 44 | -17.5&-1.4 | O=C(Nc1ccc(F)cc1)N[C@@H]1CC[C@@H](CCn2cc(-c3ccc(F)cc3)nn2)O[C@@H]1CO |
| 45 | -4.4 | CCCCn1c(N)c(N(CC(C)C)C(=O)CCN2C(=O)C3CC=CCC3C2=O)c(=O)[nH]c1=O (centres undefined) |
| 46 | 3.6 | Cc1ccccc1C(=O)N(C)[C@H]1C[C@H]2c3[nH]c4ccccc4c3CCN2C[C@H]1[C@H](C)O |
| 47 | -2.1 | CCC(=O)N(C)C[C@@H]1Oc2ncc(C#CCC(C)C)cc2C(=O)N([C@@H](C)CO)C[C@H]1C |
| 48 | 1.5 | CCOc1ccccc1N1CCN(CC(=O)N(C)CC(=O)Nc2ccccc2CC)CC1 |
| 49 | 1.3 | CCNC(=O)Nc1ccc2c(c1)C(=O)N(C)[C@H]1CC[C@@H](CC(=O)NCC3CCCCC3)O[C@H]1CO2 |
| 50 | -3.0 | C[C@H](CO)N1C[C@H](C)[C@H](CN(C)C(=O)NC2CCCC2)Oc2ncc(-c3ccncc3)cc2C1=O |

(further entries)
| no. | AF4-AF9 inh | SMILES |
| --- | --- | --- |
| 51 | -1.9 | N#CC1C(=O)NC(=O)C(C#N)C12CCCC(C(F)(F)F)C2 (centres undefined) |
| 52 | 5.8 | CN(C)CC(=O)N1CCCCN2[C@H](CO)[C@H](c3ccc(-c4ccccc4)cc3)[C@H]2C1 |
| 53 | 4.5 | CC(C)NC(=O)NCC[C@@H]1CC[C@H](NS(=O)(=O)c2ccc(-c3ccccc3)cc2)[C@@H](CO)O1 |
| 54 | -3.5 | COCC(=O)N(C)C[C@H]1Oc2ncc(C#Cc3ccccc3)cc2C(=O)N([C@H](C)CO)C[C@@H]1C |
| 55 | -1.5 | COc1cccc(-c2ccc([C@H]3[C@H](CO)N(C(C)=O)C34CN(C(C)=O)C4)cc2)c1 |
| 56 | 6.6 | C[C@@H]1CN([C@H](C)CO)S(=O)(=O)c2ccc(C#CCN(C)C)cc2O[C@@H]1CN(C)CC1CC1 |
| 57 | -0.5 | COc1ccc(CNC(=O)C[C@H]2CC[C@@H]3[C@H](COc4ccc(NC(C)=O)cc4C(=O)N3C)O2)cc1 |
| 58 | -0.1 | COc1cccc(NC(=O)N2C[C@H](O)COC[C@H]3O[C@H](CC(=O)NCCCN4CCOCC4)CC[C@@H]32)c1 |
| 59 | -2.2 | CCN(CC)c1c(C)nc2ccc(C(=O)NCc3ccc4c(c3)OCO4)cn12 |
| 60 | -0.3 | COc1ccc(NC(=O)Nc2ccc3c(c2)C(=O)N([C@@H](C)CO)C[C@H](C)[C@H](CN(C)CC2CCCCC2)OCCCC[C@@H](C)O3)cc1 |
| 61 | -1.4 | CCCNC(=O)Nc1ccc2c(c1)C(=O)N(C)C[C@H](OC)[C@@H](C)CN(Cc1cncnc1)[C@H](C)CO2 |
| 62 | 4.1 | CO[C@H]1CN(C)C(=O)c2cc(NC(=O)Nc3ccccc3)ccc2OC[C@H](C)N(C(=O)CN(C)C)C[C@H]1C |
| 63 | -3.2 | COc1ccccc1NS(=O)(=O)c1ccc(C)c(C(=O)Nc2ccc(S(=O)(=O)Nc3onc(C)c3C)cc2)c1 |
| 64 | -2.6 | C[C@@H]1CN([C@H](C)CO)C(=O)c2cc(NS(=O)(=O)c3cn(C)cn3)ccc2O[C@@H](C)CCCCO[C@@H]1CN(C)S(=O)(=O)c1ccc(Cl)cc1 |
| 65 | 5.1 | CCCC#Cc1ccc([C@@H]2[C@H]3CN(C(=O)Nc4cc(F)ccc4F)CC(=O)N3[C@H]2CO)cc1 |
| 66 | -1.3 | Cc1cc(C(=O)Nc2cccc3c2O[C@@H](CN(C)S(=O)(=O)c2cn(C)cn2)[C@H](C)CN([C@@H](C)CO)C3=O)n(C)n1 |
| 67 | 1.0 | COc1ccc2c3c(n(C)c2c1)[C@H](CO)N(Cc1ccncc1)CC31CCN(C(=O)Nc2cccc(F)c2)CC1 |
| 68 | 1.4 | CN1CCN(C(=O)C[C@H]2CC[C@@H]3[C@@H](COc4ccc(NC(=O)C5CCOCC5)cc4C(=O)N3C)O2)CC1 |
| 69 | -0.8 | O=C(C[C@@H]1C[C@@H]2c3cc(NC(=O)NC4CCCCC4)ccc3O[C@@H]2[C@H](CO)O1)NCc1ccccn1 |
| 70 | -2.2 | CCNC(=O)C[C@H]1C=C[C@@H](NC(=O)C2CC2)[C@H](CO)O1 |
| 71 | 1.0 | CC(C)(C(=O)N1CCC1(C)C(=O)NS(=O)(=O)c1cccc(F)c1)c1ccccc1 (centres undefined) |
| 72 | 1.4 | CS(=O)(=O)N1[C@H](C#N)[C@H](c2ccc(-c3ccccc3F)cc2)[C@@H]1CO |
| 73 | 5.4 | COc1ccc(-c2ccc3c(c2)O[C@H](CN(C)C(=O)Nc2ccccc2F)[C@H](C)CN([C@H](C)CO)S3(=O)=O)cc1 |
| 74 | -4.6 | Nc1[nH]c(C(=O)c2ccccc2)c(-c2ccncc2)c1C(=O)NCc1ccc(Cl)cc1 |
| 75 | -1.3 | COc1ccc(NC(=O)c2cc(-c3ccc(F)cc3OC(C)C)n[nH]2)cn1 |
| 76 | 0.4 | O=C(NCc1ccccc1)c1cc(C2CCCCN2C(=O)OCCF)on1 (centres undefined) |
| 77 | 0.7 | CN(C)C1CN(Cc2cn(Cc3ccc(C(F)(F)F)cc3)nn2)S(=O)(=O)C1 (centres undefined) |
| 78 | 0.0 | CCc1nc2ccc(C(=O)NCCC(C)C)cn2c1N(CC)CCN(C)C |
| 79 | -1.1 | Cc1ccc(S(=O)(=O)Nc2ccc3c(c2)C(=O)N([C@H](C)CO)C[C@@H](C)[C@@H](CN(C)CC2CC2)O3)cc1 |
| 80 | 0.4 | CCN(CC)C(=O)[C@H]1CC(CC(=O)NCC23CC4CC(CC(C4)C2)C3)C(=O)N2CCc3c([nH]c4ccccc34)[C@]12C (some centres undefined) |
| 81 | 0.4 | Cc1nc2c(OCc3ccccc3)cccn2c1N(C)C(=O)C1CCCCC1 |
| 82 | 0.4 | CCC(=O)N1[C@@H](CO)[C@@H]2c3ccccc3N(S(=O)(=O)c3ccccc3)C[C@@H]21 |
| 83 | 3.1 | O=C(NC1CCCC1)[C@@H]1[C@@H](CO)[C@@H]2Cn3c(ccc(-c4cccnc4)c3=O)[C@@H]2N1CCc1ccccc1 |
| 84 | -2.8 | O=C(C[C@H]1CC[C@@H](NC(=O)Nc2ccccc2)[C@H](CO)O1)NCc1cccc(F)c1 |

Assay outcomes: PubChem, Broad Institute
